Screens from PubChem.
PINK1 expr mod: PINK1 expression modulation. AID 624263. hit rate 0.2% among 410,000. PINK1 immunofluorescence, high-content cytometry, 24 h. Potency, µM (titrated, usually from 76.6 µM), without a hit: at the highest dose activation (PINK1 increase), actives largely listed as activators; active = well fitted activation curve with a large enough effect; inconclusive = small, poorly fitted or top-dose-only effect; inactive = flat fitted curve, though single readings scatter; cell line not stated here;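 also: potency is read from the fitted curve at half-maximal effect; % of control where 0% means no effect; nearly all actives have a fitted effect of over 65% in size; a mitochondrial uncoupler was the plate control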
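Stable cell line treated 24 h with compounds at 5 concentrations (CCCP controls), then fixed and immunostained for PINK1 plus nuclear and cell stains; PINK1 immunofluorescence quantified by laser-scanning microplate cytometry.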
ClpP mod: qHTS Assay for Activators of ClpP. ATP-dependent Clp protease proteolytic subunit (Bacillus subtilis (strain 168)), P80244. Potency, µM (series often up to 57.5 µM), for inactives: at the highest dose activity change, negative = active. AID 651965, 2013. hit rate 1.9% among 340,000. purified B. subtilis ClpP, FRET peptide cleavage, 20 min; active = well fitted falling curve with a large enough effect; inconclusive = small, poorly fitted or top-dose-only effect; inactive = no such curve, though single readings can be large or run the other way; also: potency is read from the fitted curve at half-maximal effect; the source files actives as falling curves though it sought activators and does not explain the sign; nearly all actives have a fitted effect of over 65% in size; many hits overshoot -100%
Target sequence (P80244 whole entry, looked up): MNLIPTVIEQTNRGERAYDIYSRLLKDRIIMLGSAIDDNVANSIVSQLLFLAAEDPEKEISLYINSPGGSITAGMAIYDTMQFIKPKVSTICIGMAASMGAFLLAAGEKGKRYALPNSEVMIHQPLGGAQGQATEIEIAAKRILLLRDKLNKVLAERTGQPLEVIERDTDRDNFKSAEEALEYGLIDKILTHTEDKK
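ClpP 10 microg/mL final, pH 8 Tris/KCl buffer with BSA, glycerol, Tween-20; compound pinned in; FRET-FV substrate; RT 20 min; Ex320/Em430; ΔFRET vs ADEP 5.8 microM, DMSO, no enzyme.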
Menin-MLL FL inh: menin-MLL binding inhibition, fluorescein peptide | Fluorescence polarization, fluorescein-MLL peptide displacement from menin | FP activity change, % at 61.4 µM | AID 1766 | 290,000 tested, under 10 active; inconclusive = falling polarisation curve, or a change in total fluorescence; inactive = total fluorescence flat and polarisation flat or rising; no compound was filed as active; the % refers to the polarisation; negative = inhibition;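 also: % of control where 0% means no effect; inhibitors lower the polarisation; unlabelled MLL peptide was the positive control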
Sfp inh: Sfp phosphopantetheinyl transferase inhibition; Biochemical Sfp PPTase activity, qHTS; Q9F4F7; Potency, µM, for inactives: max response, negative = inhibition, hits mostly inhibitors; hit rate 3.5% among 310,000; AID 1490; active = well fitted inhibition curve with a large enough effect; inconclusive = small, poorly fitted or top-dose-only effect, or another doubt; inactive = no such curve, though single readings can be large or run the other way;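 also: the enzyme is Sfp with the accession as filed and its product quenches rhodamine fluorescence; potency is read from the fitted curve at half-maximal effect; 0% = enzyme reaction without inhibitor and -100% = no enzyme wells; top concentration of the series not given in the record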
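Fluorescence-quenching assay: 15 nM Sfp-PPTase preincubated 15 min at room temperature with compound, then 5 uM rhodamine-CoA and 12.5 uM BHQ-2-labelled YbbR peptide added. Fluorescence (ex 525/em 598 nm) read at start and after 30 min; difference gives rate.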
gsp agonist: activates gsp, the McCune-Albright syndrome mutation. gsp mutant cells, cAMP HTRF, 30 min; control for the full effect not named in the record. Potency, µM (doses to about 76.9 µM), for inactives: at the top dose activation (cAMP increase), actives largely listed as activators. hit rate 0.13% among 340,000; active = well fitted activation curve with a large enough effect; inconclusive = small, poorly fitted or top-dose-only effect, or another doubt; inactive = no such curve, though single readings can be large or run the other way; cell line not stated here;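 also: phosphodiesterase inhibitor Ro 20-1724 added with compounds to block cAMP breakdown; potency is read from the fitted curve at half-maximal effect; nearly all actives have a fitted effect of over 60% in size; about a fifth of the inactives were tested at one dose only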
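Cells in DMEM/10% FBS with G418 were pretreated with compounds in DMSO plus […] (300 uM stock) for 30 min at 37C. cAMP was measured by HTRF (cAMP-d2 plus anti-cAMP antibody-K) after 30 min at room temperature.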
D2 ag: activates the human D2 dopamine receptor | AID 624465 | DiscoveRx PathHunter D2 beta-arrestin, luminescence, 90 min; 100% = 57 uM dopamine signal | P14416 | hit rate 0.084% among 360,000 | activation, % (test concentration not listed); in the data active = activation above about 40%; inconclusive = about 15% to 40%; inactive = below about 15%; also: compound concentration not given in the record; the text of the record calls up to 30% inactive
Target sequence (P14416 whole entry, looked up): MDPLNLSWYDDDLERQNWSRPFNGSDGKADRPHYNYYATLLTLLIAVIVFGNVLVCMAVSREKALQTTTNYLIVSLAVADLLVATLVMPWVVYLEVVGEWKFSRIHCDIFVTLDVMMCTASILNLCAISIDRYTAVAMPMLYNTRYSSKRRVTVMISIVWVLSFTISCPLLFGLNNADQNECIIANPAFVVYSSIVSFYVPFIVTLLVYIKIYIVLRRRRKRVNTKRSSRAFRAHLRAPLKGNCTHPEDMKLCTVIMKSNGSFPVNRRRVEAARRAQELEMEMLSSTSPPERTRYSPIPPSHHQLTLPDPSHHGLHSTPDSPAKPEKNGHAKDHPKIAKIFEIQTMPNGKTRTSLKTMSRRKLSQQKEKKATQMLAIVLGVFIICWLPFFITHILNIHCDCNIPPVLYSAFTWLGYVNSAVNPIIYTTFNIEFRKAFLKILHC
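DiscoveRx PathHunter D2 beta-arrestin cells (2,100/well) attached overnight, then compound-stimulated 90 min at 37 C in HBSS/10 mM HEPES/0.1% Tween-20 buffer; beta-galactosidase complementation read by luminescence after 1 h at ambient temperature. Dopamine 57 uM final (EC100) as control.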
gsp antag: gsp mutant antagonism. hit rate 0.4% among 340,000. gsp-mutant cells, cAMP HTRF, 30 min; control for the full effect not named in the record. Potency, µM (highest dose often 76.9 µM), without a hit: top-dose activity change, negative = inhibition, most hits filed as inhibitors; active = falling curve of any shape with a large fitted effect; inconclusive = falling curve, mostly with a smaller effect; inactive = flat or rising curve; cell line not stated here;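 also: intracellular cAMP measured with PDE inhibitor Ro 20-1724 present during compound exposure; potency is read from the fitted curve at half-maximal effect; % is scaled to controls: 0 for no effect and ±100 for the full control effect; nearly all actives have a fitted effect of over 65% in size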
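G418-selected cells were plated in DMEM/10% FBS for 16-24 h at 37C, then treated with compounds plus the PDE inhibitor […] (300 uM solution added) for 30 min at 37C. Intracellular cAMP was measured by HTRF after 30 min lysis at room temperature.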
Numbers without * were called inactive; u = inconclusive; x = no result given; & = joins results of further samples; [ ] = another dose, or the depositor's remark.

SMILES	PINK1 expr mod	ClpP mod	Menin-MLL FL inh	Sfp inh	gsp agonist	D2 ag	gsp antag
Cc1cc(OC(=O)c2c(C)cc(OC(=O)c3c(C)cc(O)cc3O)cc2O)cc(O)c1C(=O)O	5.7%	-2.3%	x	x	-22%	-0.4	-17%
COc1ccc(S(=O)(=O)N(C)C[C@H]2Oc3ncc(-c4ccncc4)cc3C(=O)N([C@@H](C)CO)C[C@@H]2C)cc1	2.4%	1.1%	x	x	-23%	-3.7	x
O=C(COc1ccccc1)Nc1ccc(CN2CCCCC2)cc1	-0.3%	x	-3.4	14%	21%	-5.0	10%
Cc1ccsc1/C=N/N1CCN(Cc2ccccc2)CC1	4.6%	x	1.7	-8%	11%[15.4 µM]	-4.8	-1%
COc1ccc(C2/C(=C(/O)c3ccc(C)cc3)C(=O)C(=O)N2CCCN2CCOCC2)cc1 (stereo unspecified)	0.5%	-2.3%	1.5	u	-22%	-2.7	5%
CC1(C)CC2(C)OCCN2C(=S)N1 (stereo unspecified)	-0.7%&0.9%	-1.1%&0.1%	-2.1	18%	19%	-2.6&-1.4	5%
C=C(C)Cn1c2ccc(NC(=O)CCc3cccc(Cl)c3)cc2c(=O)n1C	7.9%	4.4%	x	x	x	0.5	x
CC1CCCC(NC(=O)C2CCC(CNc3c(N4CCCCC4)c(=O)c3=O)CC2)C1C (stereo unspecified)	-0.5%	x	0.3	14%	-41%[inhibitor][15.4 µM]	-3.2	8%
O=C(CN1CCc2cc3c(cc2C1)OCCCO3)Nc1c(F)cccc1F	-0.5%	-16%	x	8%	12%	-1.3	-18%
Cn1c(Cn2nnc3ccccc32)nnc1SCC(N)=O	-0.3%[38.3 µM]	0.0%	4.2	-1%	-7%	-2.7	2%
CCCc1c(O)c2ccccc2[nH]c1=O	-0.6%	14µM*	4.7	15%	19%	-2.2	2%
C=CCN1N=C(c2ccc(Cl)s2)CSC1=O	-0.8%	-0.1%	-3.4	11%	-17%	-0.6	-13%
CC1=C(C(=O)c2ccccc2)C(c2ccc(O)cc2)NC(=S)N1 (stereo unspecified)	2.0%	-0.4%	0.8	-9%	-45%[inhibitor]	-3.3	-2%
COc1ccc(CC(=O)Nc2cccc(S(=O)(=O)N3CCCCCC3)c2)cc1OC	2.5%	0.4%	3.5	-2%	-10%	3.9	-25%
CCNC(=O)C1(C)CCCN1Cc1ccccc1Cl (stereo unspecified)	-0.7%	-1.4%	x	x	x	-3.6	x

Some of the entries above in a different format.
Cc1ccsc1/C=N/N1CCN(Cc2ccccc2)CC1
  PINK1 expr mod: 4.6%	ClpP mod: x	Menin-MLL FL inh: 1.7	Sfp inh: -8%	gsp agonist: 11%[15.4 µM]	D2 ag: -4.8	gsp antag: -1%

COc1ccc(C2/C(=C(/O)c3ccc(C)cc3)C(=O)C(=O)N2CCCN2CCOCC2)cc1 (stereo unspecified)
  PINK1 expr mod: 0.5%	ClpP mod: -2.3%	Menin-MLL FL inh: 1.5	Sfp inh: u	gsp agonist: -22%	D2 ag: -2.7	gsp antag: 5%

Other structures follow.
SMILES	PINK1 expr mod	ClpP mod	Menin-MLL FL inh	Sfp inh	gsp agonist	D2 ag	gsp antag
CCOC(=O)[C@H]1[C@H]2COc3cc(OC)ccc3[C@@H]2N2C(=O)CN(Cc3ccccc3)C(=O)[C@@]12C	-0.9%	1.2%	x	x	11%	-0.8	-4%
CCN(CC(=O)Nc1cc(Cl)ccc1C)C(=O)c1ccc(N2CCCC2=O)cc1	3.5%	2.6%	x	x	0%	-3.1	-9%
CCc1nc(SCC(=O)NCCc2ccccc2)c2c(=O)n(C)c(=O)n(C)c2n1	-0.9%	1.0%	-1.1	-7%	5%	-2.8	9%
O=C(/C=C\Nc1ccccn1)c1ccc(Cl)cc1	x	-3.2%	6.1	14%	-58%[inhibitor]	0.1	3%
CCCCNC(=O)c1ccc(NC(=O)C2CCCO2)cc1 (stereo unspecified)	-1.1%	-4.1%	1.6	-8%	6%	0.1	3%
O=c1cc(CO)oc(C(Nc2cccc(C(F)(F)F)c2)c2ccccn2)c1O (stereo unspecified)	3.3%	1.1%	-8.6	7.9µM*	-1%	1.2	5%
CCN(CC)Cc1cc(Nc2c3ccccc3nc3c4ccccc4n(C)c23)cc(CN(CC)CC)c1O	-2.0%	6.1%	x	x	14%	u	-23%
O=C(CCC(=O)N1CCN(Cc2ccccc2)CC1)Nc1nnc(C2CCCCC2)s1	-0.2%	-0.8%	x	6%	-10%	-3.8	-3%
COC(=O)c1ccc(/C=N/N2CCN(Cc3ccc(C)cc3C)CC2)cc1	7.1%	-4.0%	8.6	-22%	17%	-2.1	10%
Cc1cccc(NC(=O)CSCc2nc3c(nnn3Cc3ccc(F)cc3)c(=O)[nH]2)c1C	0.5%	x	5.3	-13%	24%[15.4 µM]	-2.6	-82%
COc1ccccc1-c1c(C)oc2c(CN3CCN(CCO)CC3)c(O)ccc2c1=O	-2.8%	u	u	29%	13%	-2.8	-9%
CC(=O)c1ccc(S(=O)(=O)N(C)C(C)CCc2ccco2)cc1 (stereo unspecified)	0.5%	-0.1%	2.3	1%	-10%	-1.0	-14%
CSC1=N/C(=C\c2cccc(F)c2)C(=O)S1	-1.1%	-2.0%	0.6	u	18%	0.2	4%
Cc1ccc(C)c(NC(=O)C2CCC(C)(C(=O)O)C2(C)C)c1 (stereo unspecified)	-1.9%	-1.6%	-0.8	-7%	-1%	0.8	8%
CC(C)Sc1nc(-c2ccccc2)cc(=O)[nH]1	11%[38.3 µM]	2.0%	1.0	u	32%	-3.0	10%
O=C(CSc1nnc(Cn2c(=O)sc3ccccc32)n1CCc1ccccc1)N1CCOCC1	-0.1%[38.3 µM]	-0.1%	-0.2	7%	-5%	-0.9	-7%
C[C@@H]1CCCCO[C@H](CN(C)S(=O)(=O)c2cccs2)[C@@H](C)CN([C@H](C)CO)C(=O)c2cc(NC(=O)Nc3ccc4c(c3)OCO4)ccc2O1	3.3%	-2.4%	x	x	u	-9.5	x
CN(CCS(=O)(=O)c1ccc(Cl)cc1)Cc1cccnc1	0.7%	x	6.2	9%	3%	-3.0	9%
CCN(CC)S(=O)(=O)c1ccc(C(=O)OCCN2C(=O)CCC2=O)cc1	-3.5%	0.4%	3.1	-6%	4%	-1.0	-3%
CC(=O)c1cccc(NC(=O)CCS(=O)(=O)c2ccc(Br)s2)c1	-1.2%&0.8%	0.6%	-5.8	7%	4%[15.4 µM]	-2.9	3%
O=C(c1cccnc1)N1CCN(c2c(Cl)cccc2[N+](=O)[O-])CC1	2.1%	-0.7%	-0.2	-1%	13%	1.4	3%
CCc1ccc(N(CC(=O)NC2CCCC2)S(=O)(=O)c2c(C)noc2C)cc1	4.8%	0.6%	0.6	19%	7%	-3.3	-4%
CC1CCN(c2ccc(NC(=O)c3ccccc3[N+](=O)[O-])cc2)CC1	4.8%	x	-1.9	0%	11%	-3.0	8%
CCCN1CCC(NC(=O)Nc2cc(Cl)ccc2OC)CC1	-0.9%	0.7%	-0.2	8%	0%	-19	8%
CC(=O)Nc1ccc(S(=O)(=O)NCCC(=O)OCc2nc(N)nc(Nc3ccccc3C)n2)cc1	2.8%	2.0%	x	x	-43%	-2.9	18%
CCn1cc(Cl)c(C(=O)Nc2cccc(CN3CCOCC3)c2)n1	1.5%	-0.7%	x	2%	-1%	0.7	-25%
COc1cccc(NC(=O)c2c(C)cc(C)cc2CC(C)(C)C(=O)O)c1	0.4%	x	0.4	22%	7%	-4.2	7%
CC(Sc1nnc(COc2ccc(Cl)cc2)n1-c1ccccc1)C(=O)O (stereo unspecified)	2.9%	x	1.4	17%	27%	-2.9	-7%
Oc1ccccc1N=Cc1ccc[nH]1	-1.0%	0.4%	8.3	25µM*	-9%	4.2	-15%
CCOc1cc(OCC)cc(C(=O)O)c1	-13%[38.3 µM]	-1.1%	-0.7	5%	-11%	-2.3	3%
Cc1cc(NC(=O)COC(=O)c2ccccc2S(=O)(=O)N(C)c2ccccc2)no1	-0.8%	x	3.6	4%	-5%[15.4 µM]	0.6	-2%
NC1=NC(=O)C(Cc2ccc(F)cc2)S1 (stereo unspecified)	0.0%	x	-1.6	6%	9%	-3.7	1%
CN(C)CCNC(=O)C1(C)Cc2c(-c3cccc(C(F)(F)F)c3)ccnc2O1 (stereo unspecified)	-0.9%	-11%	x	x	x	-1.8	x
O=C1CCCC/C=C\C[C@H](CC(=O)N(CCO)Cc2ccccc2)C(=O)N[C@@H](c2ccccc2)CO1	2.8%	0.4%	x	x	x	1.5	-6%
CCN(CC)c1ccc(/C=c2\sc3nc4ccccc4n3c2=O)c(O)c1	-1.2%	x	u	-7%	11%	7.8	u
CCCCCOc1ccc2oc(=O)c3c(c2c1)CCCN3C(=O)CN1CCCC(C(=O)OCC)C1 (stereo unspecified)	u	-21%	0.8	u	-27%	-3.1	-24%
CCOC(=O)Nc1cc(C(=O)OC)cc(C(=O)OC)c1	-2.4%	-7.8%	-1.7	-2%	-25%	-4.2	-5%
COc1cc(C)c(C(C)C)cc1S(=O)(=O)n1ccnc1	1.2%[38.3 µM]	-0.8%	-0.4	-7%	-10%	-1.9	3%
Cc1cc(C(=O)Nc2cccc(S(=O)(=O)N3CCCC3)c2)c2ccccc2n1	2.3%	-11%	x	x	-15%	-2.6	6%
COc1cc(NC(=O)CSCc2ccccc2)c(C(=O)O)cc1OC	-0.3%	0.0%	4.0	-4%	-2%[15.4 µM]	3.8	0%
CCC[N+](CC#CCO)(CC#Cc1ccccc1)CCC	1.8%	-1.5%	-1.4	17%	18%[15.4 µM]	-0.8	-6%
O=C(CN1C(=O)C2CCCCC2C1=O)Nc1nc(-c2ccc(F)cc2)cs1 (stereo unspecified)	0.8%	-0.2%	x	x	u	-1.2	-31%

Compounds as they come; overall some 5.1% were active at least once.
